Bioassay records (PubChem BioAssay)
Methyltransferases: Primary Screen for Target Class Profiling of Small Molecule Inhibitors of Methyltransferases. purified enzyme, MTase-Glo SAH luminescence; stronger effect = lower value. calls only at 40 µM. 3.9% of 25,000 active. AID 1745853, 2022; active = -50% or lower on at least one of six enzymes; inconclusive = the cases between; inactive = as a rule above -30% on all six;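 also: enzymes were COMT GAMT GNMT HNMT NNMT and PNMT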
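Each enzyme was assayed with SAM and its substrate. SAH formation detected by MTase-Glo luminescence; single-point 40 uM screen[…].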
Calls only; i = inactive; ? = inconclusive; + = active, no number. % is scaled to controls: 0 for no effect and ±100 for the full control effect.

Start of the data: the first four entries (preview)
SMILES	Methyltransferases
Cc1ccccc1NC(=O)N1Cc2c(sc3c2CCCC3)-n2cccc2C1c1ccc(F)cc1 (stereo not drawn)	i
Cc1cnn(C(C)C(=O)N2CCC3(CCC(=O)N(C4CC4)C3)CC2)c1 (stereo not drawn)	i
Cc1ccc(C(=O)Cn2nc3n(C)c(=O)c4ccc(C(=O)NC5CCCCC5)cc4n3c2=O)cc1	i
CCOC(=O)c1cc(Nc2ccccc2)c2cc(Cl)ccc2n1	i

This part in full, repeating the preview:
SMILES	Methyltransferases
Cc1ccccc1NC(=O)N1Cc2c(sc3c2CCCC3)-n2cccc2C1c1ccc(F)cc1 (stereo not drawn)	i
Cc1cnn(C(C)C(=O)N2CCC3(CCC(=O)N(C4CC4)C3)CC2)c1 (stereo not drawn)	i
Cc1ccc(C(=O)Cn2nc3n(C)c(=O)c4ccc(C(=O)NC5CCCCC5)cc4n3c2=O)cc1	i
CCOC(=O)c1cc(Nc2ccccc2)c2cc(Cl)ccc2n1	i
COc1ccc(C)c2c1N[C@@H](c1ccc(Br)cc1)[C@H]1CC=C[C@@H]21	i
CC1CCC(NC(=O)Cn2c(=O)oc3cc(S(=O)(=O)N4CCCC4)ccc32)CC1 (stereo not drawn)	i
CN(C)CCO[C@H]1C[C@@H](O)C12CCN(C(=O)Cc1ccc3ccccc3c1)CC2	i
O=C(Nc1ccccc1Cl)N1CCC(n2cc(C3CCCC3)nn2)CC1	i
c1ccc(CO[C@H]2COCCN(c3nc4ccccc4o3)C2)cc1	+
Cc1cccc(C(=O)N2CCCC(c3nnnn3-c3ccccc3)C2)c1 (stereo not drawn)	i

A stretch taken from the entries so far, for reference:
SMILES	Methyltransferases
CN(C)CCO[C@H]1C[C@@H](O)C12CCN(C(=O)Cc1ccc3ccccc3c1)CC2	i
O=C(Nc1ccccc1Cl)N1CCC(n2cc(C3CCCC3)nn2)CC1	i
c1ccc(CO[C@H]2COCCN(c3nc4ccccc4o3)C2)cc1	+
Cc1cccc(C(=O)N2CCCC(c3nnnn3-c3ccccc3)C2)c1 (stereo not drawn)	i

The listing continues:
SMILES	Methyltransferases
CCCc1[nH]nc2c1C(c1cc(Cl)cc(Cl)c1O)C(C#N)=C(N)O2 (stereo not drawn)	?
CCOc1ccc(CN2C(=O)c3ccc(-c4ccco4)n3CC2(C)C(=O)NC2CCCC2)cc1 (stereo not drawn)	i
Cc1noc(C)c1CCNC(=O)c1cc2n(n1)CC(C)(C(=O)NCc1ccc(F)cc1)N(C)C2=O (stereo not drawn)	i
COc1ccccc1CNC(=O)C1(C)Cn2nc(-c3ccccc3)cc2C(=O)N1Cc1ccc(SC)cc1 (stereo not drawn)	i
O=C1COc2ccc(-c3ccoc3)nc2CN1Cc1ccccc1	?
COc1ccccc1CNS(=O)(=O)c1cc2c(cc1C)n(C)c(=O)n2C	i
CCOC(=O)c1cc2n(n1)CC(C)(C(=O)NCCC(C)C)N(c1ccccc1C)C2=O (stereo not drawn)	?
CC1CCCCC1NC(=O)C1(C)Cn2c(cc3occc32)C(=O)N1CCc1ccc(Cl)cc1 (stereo not drawn)	i
Cc1ccc(NC(=O)CCc2nnc3n(CCCOC(C)C)c(=O)c4ccccc4n23)cc1C	i
Cc1ccc(NC(=O)Cn2nc3n(CCCOC(C)C)c(=O)c4ccccc4n3c2=O)cc1	i
O=C(NCC1CN(S(=O)(=O)c2cccnc2)CC12CCOCC2)N1CCCC1 (stereo not drawn)	i
CC(C)C(=O)N1CCN(CCn2nc3n(c2=O)CCCC3)CC1	i
CCC(C)C(=O)O[C@H]1C[C@](C)(O)[C@]23OC(C)(C)[C@H](C[C@H](OC(=O)c4ccccc4)[C@]2(COC(C)=O)[C@H]1OC(=O)C(C)CC)[C@H]3OC(C)=O (stereo partly drawn)	i
Cc1cc2c(cc3n2CC(C)(C(=O)NC2CCCCCCC2)N(CCc2ccccc2)C3=O)o1 (stereo not drawn)	i
Cc1ccccc1CSc1nnc2n(CCCOC(C)C)c(=O)c3cc(Cl)ccc3n12	i
O=C(CCn1ccc2cc(S(=O)(=O)N3CCCC3)ccc21)NCc1cccc(Br)c1	i
CCOCCn1c(=O)n(C(CC)C(=O)NC(C)(C)C)c2cc(C(=O)O)cnc21 (stereo not drawn)	i
CC1CCCCC1NC(=O)C1(C)Cn2c(cc3sccc32)C(=O)N1Cc1cccc(Cl)c1 (stereo not drawn)	i
COc1cccc(CN2CCCC3(CNc4ccccc4[S+](=O)([O-])N3)C2)c1 (stereo not drawn)	+
CN(C)C(=O)N1CCCC(C(=O)NCCc2nc(-c3ccccn3)no2)C1 (stereo not drawn)	i
COc1ccc(NC(=O)N2CCOC(c3ccc(Cl)cc3)C2)c(C)c1 (stereo not drawn)	i
COc1ccccc1CNC(=O)c1cc2n(n1)CC(C)(C(=O)NC1CCCCCC1)N(C)C2=O (stereo not drawn)	i
COC(=O)[C@H](O)[C@H]1C(C)(C)[C@H](OC(C)=O)[C@@]2(O)C(=O)[C@]1(C)C1CC[C@]3(C)C(CC(=O)O[C@H]3c3ccoc3)[C@]13O[C@@H]32 (stereo partly drawn)	i
CC(C)OCCCNC(=O)Cn1ccc2cc(S(=O)(=O)N3CCCCC3)ccc21	i
CCCn1c(=O)c2ccc(C(=O)NC(C)C)cc2n2c(=O)n(CC(=O)Nc3ccccc3CC)nc12	i
O=C(CC[C@@H]1CNC(=O)[C@@H]2C[C@H](NCc3ccccn3)CN12)NCc1ccccc1	i
CC[C@@]1(O)CCN(C(=O)c2cccc(CCC(C)(C)O)c2)C[C@H]1O	i
CCC(C)NC(=O)N1CC(c2nc(CCOCC3CCOCC3)no2)C1 (stereo not drawn)	i
CCc1cc2c(cc3n2CC(C)(C(=O)NC2CCCCC2)N(CCN(C)C2CCCCC2)C3=O)s1 (stereo not drawn)	i
Cc1cc2c(cc3n2CC(C)(C(=O)NC2CCCCC2)N(Cc2cccnc2)C3=O)o1 (stereo not drawn)	i
CCCN1CC2(CCN(C)CC2)CC1C(=O)N(C)Cc1ccn[nH]1 (stereo not drawn)	i
CCC1c2ccc(C)n2CCN1C(=O)Nc1cc(Cl)c(OC)cc1OC (stereo not drawn)	i
CCc1cc2c(cc3n2CC(C)(C(=O)NC2CCCCCC2)N(CC(C)c2ccccc2)C3=O)s1 (stereo not drawn)	i
O=C1COC2(CCN(S(=O)(=O)c3ccc(-c4ccc5cccnc5c4)cc3)CC2)CN1C1CC1	?
Cc1cc(CNS(=O)(=O)c2ccc3c(c2)CCN(C(=O)C(O)C(C)C)C3)no1 (stereo not drawn)	i
CN1CCc2[nH]cnc2C12CCN(C(=O)Cc1ccc(F)cc1Cl)CC2	i
Cn1cc(-c2c[nH]c3ncnc(N4CCOCC4)c23)cn1	?
C=C1CC2(C(=O)O)CC1CCC2C1(C)CCCC2(C)C(=O)OC(O)C21 (stereo not drawn)	i
CCCN1C(=O)c2cc(C(=O)NCc3cccc(OC)c3)nn2CC1(C)C(=O)NC1CCCC1 (stereo not drawn)	i
CCOCC(=O)N[C@@H]1CN(Cc2ccccc2)C[C@H]1CN(C)C	i
COc1cccc(N2C(=O)c3cc4occc4n3CC2(C)C(=O)NC2CCCCC2)c1 (stereo not drawn)	i
CC(C)Cn1c(=O)c2ccc(C(=O)NC3CCCCC3)cc2n2c(=O)n(Cc3ccccc3)nc12	i
O=C(C1CCCO1)N1CCN(c2nc(-c3cccnc3)nc3c2CNC3)CC1 (stereo not drawn)	i
CCCCNC(=O)c1cc2n(n1)CC(C)(C(=O)NC1CCCCC1)N(C)C2=O (stereo not drawn)	i
NS(=O)(=O)c1ccc(N=Nc2c(O)[nH]c3ccc(Br)cc23)cc1	?
CCCn1c(=O)c2ccc(C(=O)NC(C)C)cc2n2c(=O)n(CC(=O)NCc3ccccc3Cl)nc12	i
Cc1cc2c(cc3n2CC(C)(C(=O)NC2CCCCCCC2)N(Cc2ccccn2)C3=O)o1 (stereo not drawn)	i
O=c1c2ccccc2n2c(-c3ccc(Br)cc3)nnc2n1Cc1ccccc1	i
COc1cccc(N2CCN(c3ccc4nnc(CCC(=O)NCCCOC(C)C)n4n3)CC2)c1	i
COc1ccc2c(c1)c(CN1CCOCCNC(=O)CC1)cn2C	i

(list continues)
SMILES	Methyltransferases
C=Cc1ccc(CSc2nnc3n(CCCOC(C)C)c(=O)c4cc(Cl)ccc4n23)cc1	i
Cn1c(=O)n(C)c2cc(S(=O)(=O)N3CCN(c4ccccn4)CC3)c(Cl)cc21	i
COc1nc2nc(CCc3ccccc3)n(C)c2cc1-c1cncnc1	i
COC(=O)C1=CO[C@@H](O[C@@H]2O[C@H](CO)[C@@H](O)[C@H](O)[C@H]2O)/C(=C\CO)[C@@H]1CC(=O)OCCc1ccc(O)cc1	i
CCN1C(=O)c2cc(C(=O)NCCc3ccc(OC)c(OC)c3)nn2CC1(C)C(=O)NC1CCCC1 (stereo not drawn)	i
Cc1ccc(CCNC(=O)c2ccc3c(=O)[nH]c4c(C(=O)NC5CCCC5)sc(=S)n4c3c2)cc1	i
O=C(Cn1ccc2cc(S(=O)(=O)N3CCCC3)ccc21)NCCC1=CCCCC1	i
Nc1nc(SCc2ccc([N+](=O)[O-])cc2)c2ncn([C@@H]3O[C@H](CO)[C@@H](O)[C@H]3O)c2n1	i
CC(=O)Nc1cccc2c1c(Sc1ccc(Cl)cc1)c(C)n2CC(=O)O	i
Cc1ccsc1C(=O)N1CCCC(CN2CCCC2)CC1 (stereo not drawn)	i
Cc1ccc(NC(=O)CSc2nnc3n(CCC(C)C)c(=O)c4ccccc4n23)cc1C	i
CN(C)c1ccc(Nc2c3ccc(NC(=O)CCN4CCCC4)cc3nc3cc(NC(=O)CCN4CCCC4)ccc23)cc1	+
Cc1ccc(Nc2nc3c(S(=O)(=O)c4ccccc4)nnn3c3ccccc23)cc1	i
CCOc1ccc(CN2C(=O)c3cc4sccc4n3CC2(C)C(=O)NC2CCCCCCC2)cc1 (stereo not drawn)	i
CCCOc1ccc(CN2C(=O)c3cc4occc4n3CC2(C)C(=O)NC2CCCC(C)C2C)cc1 (stereo not drawn)	i
COc1cccc(CSc2nnc3n(CCC(C)C)c(=O)c4ccccc4n23)c1	i
Cn1c(CCC(=O)NC2CCOC2)nc2cc(S(=O)(=O)N3CCCC3)ccc21 (stereo not drawn)	i
COC(=O)c1cc2n(n1)CC(C)(C(=O)NC1CCCCCC1)N(c1cc(OC)cc(OC)c1)C2=O (stereo not drawn)	i
COc1ccccc1CNC(=O)c1ccc2c(=O)n(-c3ccc(F)cc3)c3nnc(C)n3c2c1	i
CC1(C(=O)NC2CCCCC2)Cn2nc(-c3ccco3)cc2C(=O)N1c1ccc(F)cc1 (stereo not drawn)	i
CC1(C)CCC(C)(C)c2cc(C3(c4ccc(C(=O)O)cc4)OCCO3)ccc21	i
COc1ccccc1CNC(=O)C1(C)Cn2c(cc3ccccc32)C(=O)N1Cc1ccco1 (stereo not drawn)	i
COc1ccccc1N1CCN(C(=O)CCc2nnc3n(Cc4ccccc4)c(=O)c4ccccc4n23)CC1	i
Cc1ccc(Cc2nn3c(SCC(=O)Nc4ccc(C)c(C)c4)nnc3[nH]c2=O)cc1	i
COCC(=O)N1CCC(C2CCN(C(=O)c3ccncc3)CC2)C1 (stereo not drawn)	i
COC(=O)c1ccc(COc2ccc3c(-c4ccccc4)cc(=O)oc3c2C)cc1	i
Cc1ccc(N(C)C(=O)Cn2c(=O)oc3cc(S(=O)(=O)N4CCCCC4)ccc32)cc1	i
CC1CCC23COC(=O)C2=CC(O)CC3C1(C)CCC1=CC(=O)OC1O (stereo not drawn)	i
COC(=O)N(C)Cc1cccc(N2CCN(S(=O)(=O)c3cccc4ccccc34)CC2)c1F	i
CC1(C(=O)NC2CCCCCC2)Cn2c(cc3ccccc32)C(=O)N1CC1CCCO1 (stereo not drawn)	i
CCCn1c(=O)c2ccc(C(=O)NC3CCCC3)cc2n2c(=O)n(CC(=O)Nc3ccc(C)cc3)nc12	i
Cc1nc(-c2cn(C3CCCN(C(=O)c4ccc(Cl)s4)C3)nn2)no1 (stereo not drawn)	i
CCOc1ccc(C(=O)Nc2ccc3c(c2)C(=O)N(C)C2=NCCN23)cc1OCC	i
CCn1cc(CN(C)Cc2ccccc2)ccc1=O	i
Cn1c(=O)c2ccc(C(=O)NC3CCCC3)cc2n2c(=O)n(CC(=O)Nc3cc(F)ccc3F)nc12	i
Cc1c(Cl)cccc1S(=O)(=O)Nc1nc(NCCc2ccccc2)nc2c1CN(Cc1ccccc1)CC2	?
Cc1noc(C)c1CN[C@@H]1CCC[C@@H](C(=O)N2CCN(C)CC2)CC(=O)N(C)C1	i
CC(C)CCn1c(=O)c2ccccc2n2c(CCC(=O)NCc3ccc(Cl)cc3)nnc12	i
CN1C(=O)c2cc(C(=O)N3CCN(c4ccccc4F)CC3)nn2CC1(C)C(=O)NC1CCCCC1 (stereo not drawn)	i
COc1cc(NC(=O)CCC2CCCN(Cc3nc(C(C)C)cs3)C2)cc(OC)c1 (stereo not drawn)	i
CCOc1ccc(CNC(=O)c2ncn3c2C(=O)N(CC)C(C)(C(=O)NC2CCCC2)C3)cc1 (stereo not drawn)	i
C=CCn1c(=O)c2ccc(C(=O)NC(C)C)cc2n2c(=O)n(CC(=O)Nc3ccc(C)c(F)c3)nc12	i
O=C1CC2(CCCC2)[C@H](O)C(=O)N1CCCCN1CCN(c2ncccn2)CC1	i
CC(C)(C)CC(=O)N1C[C@@H](CO)[C@@H]2Oc3ccc(Cl)cc3[C@@H]21	i
CN1C(CCl)Nc2cc(Cl)c(S(N)(=O)=O)cc2S1(=O)=O (stereo not drawn)	i

Compounds listed so far with bromine, in the order listed:
SMILES	Methyltransferases
COc1ccc(C)c2c1N[C@@H](c1ccc(Br)cc1)[C@H]1CC=C[C@@H]21	i
O=C(CCn1ccc2cc(S(=O)(=O)N3CCCC3)ccc21)NCc1cccc(Br)c1	i
NS(=O)(=O)c1ccc(N=Nc2c(O)[nH]c3ccc(Br)cc23)cc1	?
O=c1c2ccccc2n2c(-c3ccc(Br)cc3)nnc2n1Cc1ccccc1	i

This is a subset (hit frequency here may not be typical).
